TRPML1 ag: human mucolipin-1 channel agonism. Q9GZU1. TRPML1-expressing cells, Ca2+ dye fluorescence, FDSS; host cell line not named in the record; reference of the full effect not given here. activation, % (no concentration beside the values). 0.12% of 410,000 active; in the data active = activation above about 50%; inconclusive = about 30% to 50%; inactive = below about 30%; further: 0% is about no effect; the text of the record puts the active cut at 80%
Target sequence (Q9GZU1 whole entry, looked up): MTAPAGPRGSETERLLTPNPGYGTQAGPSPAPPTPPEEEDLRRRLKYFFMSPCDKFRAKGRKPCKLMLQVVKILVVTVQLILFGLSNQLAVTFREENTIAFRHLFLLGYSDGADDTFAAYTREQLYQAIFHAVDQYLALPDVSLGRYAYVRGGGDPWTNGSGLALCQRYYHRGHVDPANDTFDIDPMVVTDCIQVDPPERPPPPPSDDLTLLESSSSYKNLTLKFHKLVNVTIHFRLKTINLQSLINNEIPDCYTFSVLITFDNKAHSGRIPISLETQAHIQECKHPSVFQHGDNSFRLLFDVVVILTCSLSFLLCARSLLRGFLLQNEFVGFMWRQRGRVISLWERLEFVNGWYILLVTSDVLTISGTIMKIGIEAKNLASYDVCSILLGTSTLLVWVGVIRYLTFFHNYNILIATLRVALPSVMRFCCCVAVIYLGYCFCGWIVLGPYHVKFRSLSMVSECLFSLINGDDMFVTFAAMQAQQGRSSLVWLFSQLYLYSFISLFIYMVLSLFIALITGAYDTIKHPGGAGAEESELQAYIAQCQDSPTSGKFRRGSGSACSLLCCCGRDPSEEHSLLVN
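In this qHTS format, compounds were pin-transferred onto Ca8-dye-loaded TRPML1-DL cells induced with Tet overnight, and intracellular Ca2+ fluorescence was recorded kinetically for 110 s after a 10 s baseline. A subsequent 4uM final 54-4 (EC80) addition followed by a second 110 s read served as the antagonist phase.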
Six1-Eya2 blk: blocks human Six1 binding to Eya2. AlphaScreen GST-Six1/His-Eya2 binding, biochemical; stronger effect = lower value; control for the full effect not named in the record. activity change, % (test concentration not listed). 0.56% of 360,000 active. AID 651725; in the data active = activity change below about -65%; inconclusive = about -30% to -65%; inactive = above about -30%; further: on the % scale 0 is the no-effect control and ±100 the full control effect; compound concentration not given in the record
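Compounds are tested against tagged Six1 and Eya2 proteins bridged by glutathione donor and nickel acceptor beads; after a one-hour incubation at 37 °C without light, AlphaScreen emission is recorded.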
D2 potentiator: potentiates the human D2 dopamine receptor allosterically | P14416 | DiscoveRx D2 beta-arrestin cells, luminescence, 90 min; 100% = 57 uM dopamine signal | potentiation, % (concentration not given with the values) | 0.23% of 360,000 active | AID 624464; active = potentiation of 50% or more; inconclusive = 30% to 50%; inactive = 30% or less;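 further: compound concentration not given in the record; tested on top of an EC20 dose of dopamine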
Target sequence (P14416 whole entry, looked up): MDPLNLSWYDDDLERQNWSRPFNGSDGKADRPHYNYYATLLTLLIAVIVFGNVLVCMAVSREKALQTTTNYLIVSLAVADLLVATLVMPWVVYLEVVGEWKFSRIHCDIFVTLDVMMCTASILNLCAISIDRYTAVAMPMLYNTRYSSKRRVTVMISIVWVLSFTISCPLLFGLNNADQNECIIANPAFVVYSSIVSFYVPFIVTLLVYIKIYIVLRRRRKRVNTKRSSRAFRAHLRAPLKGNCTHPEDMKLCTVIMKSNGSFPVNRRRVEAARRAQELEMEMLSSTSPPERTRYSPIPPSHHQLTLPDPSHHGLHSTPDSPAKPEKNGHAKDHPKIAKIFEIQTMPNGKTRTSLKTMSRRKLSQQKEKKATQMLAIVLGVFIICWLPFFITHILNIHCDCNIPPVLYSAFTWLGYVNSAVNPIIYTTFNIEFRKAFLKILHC
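PathHunter D2 cells, attached overnight at 37 deg C, received compound in DMSO plus dopamine at EC20 (50 nM final) for 90 min at 37 deg C. Beta-arrestin recruitment was read as luminescence after 1 h with detection reagent at ambient temperature.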
CtBP-E1A inh: inhibitors of CtBP/E1A interaction; 0.49% of 340,000 active; AlphaScreen GST-E1A/His-CtBP binding, 1536-well; stronger effect = lower value; control for the full effect not named in the record; activity change, % (concentration not given with the values); in the data active means activity change below about -65%; inconclusive means about -30% to -65%; inactive means above about -30%; further: on the % scale 0 is the no-effect control and ±100 the full control effect
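AlphaScreen with 125 nM GST-E1A and 125 nM His-CtBP (5X stocks) in Tris pH 8.0, 300 mM NaCl, BSA, Tween 20, TCEP. Compounds preincubated 2 h at 37 deg C, then glutathione donor/nickel acceptor beads added for 1 h at 37 deg C in dark.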
PINK1 expr mod: changes PINK1 expression. Potency, µM (series often up to 76.6 µM), inactives show at the highest dose activation (PINK1 increase), actives largely listed as activators. PINK1 immunofluorescence, high-content cytometry, 24 h. 0.2% of 410,000 active. AID 624263; active = well fitted activation curve with a large enough effect; inconclusive = small, poorly fitted or top-dose-only effect; inactive = flat fitted curve, though single readings scatter; cell line not stated here;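 further: potency means the concentration at half of the fitted maximal effect; % of control where 0% means no effect; nearly all actives have a fitted effect of over 65% in size; a mitochondrial uncoupler was the plate control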
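PINK1 protein level read as immunofluorescence by microplate cytometer in a fixed, stained stable cell line after 24 h exposure to five compound concentrations, with CCCP as control.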
D2 agonist: activates the human D2 dopamine receptor. P14416. AID 624465. activation, % (concentration not given with the values). DiscoveRx PathHunter D2 beta-arrestin, luminescence, 90 min; 100% = 57 uM dopamine signal. 0.084% of 360,000 active; in the data active = activation above about 40%; inconclusive = about 15% to 40%; inactive = below about 15%; further: compound concentration not given in the record; the text of the record calls up to 30% inactive
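Agonist mode: compounds alone added to overnight-plated D2 PathHunter cells for 90 min at 37 C, with 57 uM final dopamine (EC100) defining full response. Beta-arrestin recruitment detected by chemiluminescent reagent, read after 1 h at ambient temperature.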
Numbers without * were called inactive; [ ] = another dose, or the depositor's remark. Hits appear at their usual frequency; about 1.3% have a hit in one of these screens.

Start of the data: the first 2 entries, to show the layout:
Cc1c(NC(=O)C2CCCN2S(=O)(=O)c2ccc(Cl)cc2)c(=O)n(-c2ccccc2)n1C (stereo not given) was read as TRPML1 ag -0.4, Six1-Eya2 blk -3.1, D2 potentiator -6.8, CtBP-E1A inh 0.8, PINK1 expr mod 0.0%[38.3 µM] and D2 agonist -0.7.
`COc1ccc(N2C(=S)N(C(=O)c3ccccc3)C(=Nc3ccccc3)C2=Nc2ccccc2)cc1` gave TRPML1 ag 0.0, Six1-Eya2 blk -1.0, D2 potentiator -6.4, CtBP-E1A inh -2.6, PINK1 expr mod -2.8%[38.3 µM] and D2 agonist -1.1.

The listing (from the top)
Cc1c(NC(=O)C2CCCN2S(=O)(=O)c2ccc(Cl)cc2)c(=O)n(-c2ccccc2)n1C (stereo not given) was read as TRPML1 ag -0.4, Six1-Eya2 blk -3.1, D2 potentiator -6.8, CtBP-E1A inh 0.8, PINK1 expr mod 0.0%[38.3 µM] and D2 agonist -0.7.
`COc1ccc(N2C(=S)N(C(=O)c3ccccc3)C(=Nc3ccccc3)C2=Nc2ccccc2)cc1` gave TRPML1 ag 0.0, Six1-Eya2 blk -1.0, D2 potentiator -6.4, CtBP-E1A inh -2.6, PINK1 expr mod -2.8%[38.3 µM] and D2 agonist -1.1.
CC(C)NC(=O)C12CC3CC(C1)CC(C(=O)NC(C)C)(C3)C2 was read as TRPML1 ag 0.0, Six1-Eya2 blk 4.3, D2 potentiator 0.7, CtBP-E1A inh 0.2, PINK1 expr mod 1.2% and D2 agonist -1.8.
Screening O=C(NCCN1C(=O)S/C(=C\c2ccc(OC(F)F)cc2)C1=O)C1=COCCO1 returned TRPML1 ag 0.4, Six1-Eya2 blk 0.0, D2 potentiator -31.5, CtBP-E1A inh 0.0, PINK1 expr mod 7.2% and D2 agonist -3.1.
`O=C(Nc1ccccc1)c1cc(S(=O)(=O)N2CCSCC2)ccc1Cl` gave TRPML1 ag 0.2, Six1-Eya2 blk 3.7, D2 potentiator -8.3, CtBP-E1A inh 10.7, PINK1 expr mod 0.9% and D2 agonist -2.5.
COc1ccc(CCNC(C)=O)cc1 was read as TRPML1 ag -0.3, Six1-Eya2 blk 2.2, D2 potentiator 18.0, CtBP-E1A inh 7.5, PINK1 expr mod 0.7% and D2 agonist -1.1.
For Nc1ccc2nc(-c3cccc(-c4nc5ccc(N)cc5[nH]4)n3)[nH]c2c1 the results were TRPML1 ag 0.0, Six1-Eya2 blk inconclusive, D2 potentiator 2.3, PINK1 expr mod 2.7% and D2 agonist 1.8.
Screening CC(C)c1ccccc1OCC(O)CN1CCN(S(=O)(=O)c2ccc([N+](=O)[O-])cc2)CC1 (stereo not given) returned TRPML1 ag 1.9, Six1-Eya2 blk inconclusive, D2 potentiator -26.1, CtBP-E1A inh -9.1, PINK1 expr mod 2.1% and D2 agonist 14.1.
`O=C(NCCOC(=O)c1ccc(C(=O)OCCNC(=O)c2cccnc2)s1)c1cccnc1` gave TRPML1 ag 0.3, Six1-Eya2 blk 1.0, D2 potentiator -2.0, CtBP-E1A inh 6.7, PINK1 expr mod 13.3%[38.3 µM] and D2 agonist -4.8.
`COc1ccc(NS(=O)(=O)c2cc(C)ccc2OC)cc1OC` gave TRPML1 ag -0.1, Six1-Eya2 blk 24.4, D2 potentiator -3.0, CtBP-E1A inh 0.0, PINK1 expr mod -1.6% and D2 agonist -2.8.
O=C(Cn1cc(F)c(=O)[nH]c1=O)c1ccco1 was read as TRPML1 ag -0.7, Six1-Eya2 blk 0.5, D2 potentiator -4.4, CtBP-E1A inh -1.6, PINK1 expr mod 0.2% and D2 agonist -6.5.
Cc1ccc(S(=O)(=O)/C(=C\N(C)C)c2cnc(Cl)s2)cc1 was read as TRPML1 ag -0.1, Six1-Eya2 blk 14.3, D2 potentiator -2.1, CtBP-E1A inh -14.0, PINK1 expr mod -0.3% and D2 agonist -6.2.
For CCCOc1ccc(S(=O)(=O)N2C(=O)CC(=O)N(Cc3ccc(OCC)cc3)C2=O)cc1 the results were TRPML1 ag 1.1, Six1-Eya2 blk 3.2, D2 potentiator 1.8, CtBP-E1A inh 2.0, PINK1 expr mod 1.4% and D2 agonist 2.4.
Screening CC12CCC(=O)N1c1c(sc3nc(N4CCOCC4)c4c(c13)CCCC4)C(=O)N2 (stereo not given) returned TRPML1 ag -0.9, Six1-Eya2 blk -8.3, D2 potentiator -10.3, CtBP-E1A inh -3.0, PINK1 expr mod 3.3% and D2 agonist -3.4.
Screening Cc1ccc(NC(=O)COC(=O)CCc2c(C)nc3ncnn3c2C)cc1C returned TRPML1 ag -0.7, Six1-Eya2 blk 1.0, D2 potentiator -2.6, CtBP-E1A inh 2.9, PINK1 expr mod 3.1% and D2 agonist 0.0.
CCc1noc(C)c1C(=O)NC1CCCc2c1cnn2-c1cc(C)cc(C)c1 (stereo not given) was read as TRPML1 ag -0.8, Six1-Eya2 blk -1.9, D2 potentiator -5.1, CtBP-E1A inh 2.9, PINK1 expr mod -1.1% and D2 agonist 0.3.
`CNC(=O)c1ccccc1Sc1cccc2cccc(C(=O)O)c12` gave TRPML1 ag 1.5, Six1-Eya2 blk 8.5, D2 potentiator -2.7, CtBP-E1A inh 7.6, PINK1 expr mod -0.5% and D2 agonist -1.4.
O=C(ON=C1CCN(S(=O)(=O)c2ccccc2)CC1)c1ccccc1 was read as TRPML1 ag 0.9, Six1-Eya2 blk 0.7, D2 potentiator 7.1, CtBP-E1A inh -0.4, PINK1 expr mod -1.5% and D2 agonist -3.6.
For COc1ccc(N(CC(=O)O)S(=O)(=O)c2c(C)n[nH]c2C)cc1 the results were TRPML1 ag 0.4, Six1-Eya2 blk 5.6, D2 potentiator -20.4, CtBP-E1A inh -0.1, PINK1 expr mod -1.1%[38.3 µM] and D2 agonist -4.4.
For COc1ccc(CCN2C(=O)CS/C2=N\NC(=O)c2ccc(C(C)(C)C)cc2)cc1OC the results were TRPML1 ag 0.1, Six1-Eya2 blk 5.2, D2 potentiator 3.4, CtBP-E1A inh -3.2, PINK1 expr mod 7.0% and D2 agonist 2.5.
Screening COc1ccc(OC)c(C(=O)CSc2nnc(Cc3cccs3)n2C)c1 returned TRPML1 ag -1.8, Six1-Eya2 blk -4.6, D2 potentiator -12.8, CtBP-E1A inh -1.3, PINK1 expr mod -0.2% and D2 agonist -1.3.
Cc1c(C(=O)OCC(=O)c2ccc3c(c2)OCCO3)oc2ccccc12 was read as TRPML1 ag 3.7, Six1-Eya2 blk 0.8, D2 potentiator -6.3, CtBP-E1A inh 3.6, PINK1 expr mod -1.9% and D2 agonist -0.4.
`NS(=O)(=O)c1ccc(CCNC(=O)CNS(=O)(=O)c2cccc(Br)c2)cc1` gave TRPML1 ag -0.4, Six1-Eya2 blk 2.0, D2 potentiator 5.6, CtBP-E1A inh 1.8, PINK1 expr mod 0.9% and D2 agonist 2.7.
For CON(C)S(=O)(=O)NC(=O)C1=C(N2CCCC2)COC1=O the results were TRPML1 ag 0.1, Six1-Eya2 blk 2.5, D2 potentiator -3.7, CtBP-E1A inh 5.2, PINK1 expr mod 1.2% and D2 agonist -7.1.
Nc1c(C(=O)CSc2nnc(Nc3ccc(F)cc3)s2)c(=O)[nH]c(=O)n1C1CC1 was read as TRPML1 ag -0.1, Six1-Eya2 blk -15.7, D2 potentiator 4.3, PINK1 expr mod 13.4% and D2 agonist 0.9.
`COc1ccc(C(=O)O/N=C(\C)c2nccs2)cc1` gave TRPML1 ag 0.5, Six1-Eya2 blk 22.7, D2 potentiator 5.9, CtBP-E1A inh 0.0, PINK1 expr mod 1.0% and D2 agonist 3.1.
Screening Nc1ncnc2c1ncn2[C@@H]1O[C@H](C(=O)N2CCCN(Cc3ccccc3F)CC2)[C@@H](O)[C@H]1O returned TRPML1 ag -0.7, Six1-Eya2 blk 4.6, D2 potentiator 0.0, CtBP-E1A inh 2.9, PINK1 expr mod 16.7% and D2 agonist -3.1.
For CC(=O)N1c2ccccc2NC2=C(C(=O)CCC2)C1c1cccnc1 (stereo not given) the results were TRPML1 ag 4.7, Six1-Eya2 blk 3.8, D2 potentiator -9.8, CtBP-E1A inh 3.4, PINK1 expr mod -2.4% and D2 agonist 0.6.
`CCOc1ccc(C2=Nn3cnnc3SC2)cc1` gave TRPML1 ag -0.3, Six1-Eya2 blk 1.5, D2 potentiator -7.0, CtBP-E1A inh -16.4, PINK1 expr mod 0.2% and D2 agonist -1.9.
`Cc1ccc(OCC(=O)Nc2ccc3oc(=O)ccc3c2)cc1` gave TRPML1 ag 1.6, Six1-Eya2 blk -2.3, D2 potentiator -0.3, CtBP-E1A inh -6.4, PINK1 expr mod -1.2% and D2 agonist 2.0.
CC(C)Cn1c(-c2ccc(Cl)cc2)cnc1SCC(=O)N1CCOCC1 was read as TRPML1 ag -0.3, Six1-Eya2 blk -9.5, D2 potentiator -14.6, CtBP-E1A inh 0.0, PINK1 expr mod 2.9%[38.3 µM] and D2 agonist -0.4.
For Cc1cc(C(=O)NNC(=S)Nc2ccccc2)nn1C the results were TRPML1 ag -0.1, Six1-Eya2 blk -19.1, D2 potentiator -12.0, PINK1 expr mod -1.3% and D2 agonist -4.2.
Screening CCC(=O)Nc1cccc(-n2nnnc2SCC(=O)N2CCCCC2)c1 returned TRPML1 ag 1.9, Six1-Eya2 blk 22.2, D2 potentiator 4.0, CtBP-E1A inh 26.8, PINK1 expr mod -1.3% and D2 agonist -0.1.
Screening CCOc1ccc(NC(=S)Nc2cccnc2)cc1 returned TRPML1 ag -0.7, Six1-Eya2 blk 10.0, D2 potentiator 1.3, CtBP-E1A inh -4.6, PINK1 expr mod -0.3% and D2 agonist 4.0.
For COCCCN1C(=O)C(CC(=O)NC2CCCCC2)CC(C(=O)N2CCOCC2)=C1C (stereo not given) the results were TRPML1 ag -0.5, Six1-Eya2 blk 2.3, D2 potentiator 1.3, CtBP-E1A inh 3.7, PINK1 expr mod -0.8% and D2 agonist 0.3.
Screening O=C(CSc1nnnn1-c1cccc(F)c1)NC1CC1 returned TRPML1 ag 0.3, Six1-Eya2 blk 20.5, D2 potentiator -34.8, CtBP-E1A inh -9.7, PINK1 expr mod -0.4% and D2 agonist -2.2.
For O=C(NCc1cccnc1)c1ccc(S(=O)(=O)N2CCOCC2)cc1 the results were TRPML1 ag -0.2, Six1-Eya2 blk -3.2, D2 potentiator -15.1, CtBP-E1A inh 13.2, PINK1 expr mod 7.9%[38.3 µM] and D2 agonist -0.3.
O=C(CN(c1cccc([N+](=O)[O-])c1)S(=O)(=O)c1ccccc1)NCc1cccnc1 was read as TRPML1 ag -0.3, Six1-Eya2 blk 6.3, D2 potentiator 1.2, CtBP-E1A inh 3.9, PINK1 expr mod 4.3% and D2 agonist 0.5.
For O=C(O)CCCN1C(=O)NC2NC(=O)NC21 (stereo not given) the results were TRPML1 ag -0.1, Six1-Eya2 blk -0.6, D2 potentiator -4.7, CtBP-E1A inh 7.1, PINK1 expr mod 3.3% and D2 agonist -0.1.
`COc1cc(Br)c(C2C(C#N)=C(N)Oc3n[nH]c(-c4cccnc4)c32)cc1OC` (stereo not given) gave TRPML1 ag 0.2, Six1-Eya2 blk -0.8, D2 potentiator -2.8, CtBP-E1A inh 0.0, PINK1 expr mod 4.1% and D2 agonist 0.2.

Source: PubChem BioAssay (National Center for Advancing Translational Sciences (NCATS))
